From PubChem
Menin-MLL FL inh – qHTS Assay for Inhibitors Targeting the Menin-MLL Interaction in MLL Related Leukemias: Competition With Fluorescein Labeled MLL-derived Peptide. Fluorescence polarization, fluorescein-MLL peptide displacement from menin. FP activity change, % at 61.4 µM. 290,000 tested, under 10 active. AID 1766, 2009; inconclusive = falling polarisation curve, or a change in total fluorescence; inactive = total fluorescence flat and polarisation flat or rising; no compound was filed as active; the % refers to the polarisation; negative = inhibition;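 further: % of control where 0% means no effect; inhibitors lower the polarisation; unlabelled MLL peptide was the positive control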
ClpP mod – qHTS Assay for Activators of ClpP | AID 651965, 2013 | 340,000 tested, 1.9% active | Potency, µM (titrated, usually from 57.5 µM), without a hit: at the top dose activity change, negative = active | purified B. subtilis ClpP, FRET peptide cleavage, 20 min; active = well fitted falling curve with a large enough effect; inconclusive = small, poorly fitted or top-dose-only effect; inactive = no such curve, though single readings can be large or run the other way; further: potency means the concentration at half of the fitted maximal effect; the source files actives as falling curves though it sought activators and does not explain the sign; nearly all actives have a fitted effect of over 65% in size; many hits overshoot -100%
Target sequence (P80244 whole entry, looked up): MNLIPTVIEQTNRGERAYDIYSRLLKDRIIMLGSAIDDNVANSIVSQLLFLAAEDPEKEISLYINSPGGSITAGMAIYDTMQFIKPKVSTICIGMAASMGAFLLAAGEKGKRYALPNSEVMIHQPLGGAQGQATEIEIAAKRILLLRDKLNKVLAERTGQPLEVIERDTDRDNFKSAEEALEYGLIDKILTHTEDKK
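ClpP 10 microg/mL final, pH 8 Tris/KCl buffer with BSA, glycerol, Tween-20; compound pinned in; FRET-FV substrate; RT 20 min; Ex320/Em430; ΔFRET vs ADEP 5.8 microM, DMSO, no enzyme.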
TRPML1 agonist – qHTS for Agonists of the Human Mucolipin Transient Receptor Potential 1 (TRPML1). 410,000 tested, 0.12% active. activation, % (no concentration beside the values). TRPML1-expressing cells, Ca2+ dye fluorescence, FDSS; host cell line not named in the record; reference of the full effect not given here; in the data active = activation above about 50%; inconclusive = about 30% to 50%; inactive = below about 30%; further: 0% is about no effect; the text of the record puts the active cut at 80%
Target sequence (Q9GZU1 whole entry, looked up): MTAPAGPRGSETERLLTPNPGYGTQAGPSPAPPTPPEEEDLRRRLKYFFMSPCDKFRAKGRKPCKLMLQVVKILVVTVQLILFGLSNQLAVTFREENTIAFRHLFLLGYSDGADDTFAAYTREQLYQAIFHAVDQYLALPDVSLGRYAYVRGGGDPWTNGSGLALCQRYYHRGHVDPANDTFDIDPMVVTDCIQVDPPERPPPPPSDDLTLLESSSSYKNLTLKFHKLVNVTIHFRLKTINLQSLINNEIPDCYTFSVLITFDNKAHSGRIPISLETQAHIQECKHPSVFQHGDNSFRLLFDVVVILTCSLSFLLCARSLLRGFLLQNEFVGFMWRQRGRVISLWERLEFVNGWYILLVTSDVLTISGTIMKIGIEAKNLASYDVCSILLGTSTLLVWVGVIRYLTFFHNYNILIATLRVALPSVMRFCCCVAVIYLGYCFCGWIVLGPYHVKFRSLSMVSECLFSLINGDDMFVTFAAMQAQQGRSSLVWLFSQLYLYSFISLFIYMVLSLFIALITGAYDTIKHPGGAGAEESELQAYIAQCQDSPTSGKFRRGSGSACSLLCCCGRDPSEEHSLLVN
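Agonist activity was taken from a 110 s kinetic Ca2+ dye read on the FDSS after pinning compounds onto TRPML1-DL cells. The cells were seeded at 1,500/well with Tet inducer, incubated about 16 h, then dye-loaded at room temperature.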
gsp antag – qHTS for Antagonists of gsp, the Etiologic Mutation Responsible for Fibrous Dysplasia/McCune-Albright Syndrome: qHTS. gsp-mutant cells, cAMP HTRF, 30 min; control for the full effect not named in the record. Potency, µM (highest dose often 76.9 µM), for the others: at the highest dose activity change, negative = inhibition, hits mostly inhibitors. 340,000 tested, 0.4% active. AID 624288, 2012; active = falling curve of any shape with a large fitted effect; inconclusive = falling curve, mostly with a smaller effect; inactive = flat or rising curve; cell line not stated here;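 further: intracellular cAMP measured with PDE inhibitor Ro 20-1724 present during compound exposure; potency means the concentration at half of the fitted maximal effect; on the % scale 0 is the no-effect control and ±100 the full control effect; nearly all actives have a fitted effect of over 65% in size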
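Measurement of cellular cAMP by homogeneous time-resolved fluorescence following a 30 min compound exposure at 37C. The PDE inhibitor […] was present throughout; the assay buffer was DPBS with 0.05% BSA and 0.005% Tween 20.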
TRPML1 inh – qHTS for Inhibitors of the Human Mucolipin Transient Receptor Potential 1 (TRPML1). Mucolipin-1 (Homo sapiens), Q9GZU1. TRPML1-inducible cells, Ca2+ dye fluorescence, FDSS; hits give low values; inhibition of EC80 agonist-evoked calcium signal. activity change, negative = inhibition, % (no concentration beside the values). 390,000 tested, 0.02% active; in the data active means activity change below about -50%; inconclusive means about -30% to -50%; inactive means above about -30%;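 further: stimulus is agonist 54-4 at its EC80 concentration; on the % scale 0 is the no-effect control and ±100 the full control effect; compound concentration not given in the record; the text of the record puts the active cut at -80%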
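TRPML1-DL cells, Tet-induced overnight (~16 h, 37 °C) at 1,500 cells/well, were loaded with Ca8 no-wash dye plus quencher for 45-90 min at room temperature. Compounds were pinned during FDSS kinetic reading; agonist 54-4 at EC80 (4 uM final) then added.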
gsp agonist – qHTS for Agonist of gsp, the Etiologic Mutation Responsible for Fibrous Dysplasia/McCune-Albright Syndrome: qHTS; gsp mutant cells, cAMP HTRF, 30 min; control for the full effect not named in the record; Potency, µM (titrated, usually from 76.9 µM), without a hit: at the highest dose activation (cAMP increase), usual class: activators; 340,000 tested, 0.13% active; AID 624287, 2012; active = well fitted activation curve with a large enough effect; inconclusive = small, poorly fitted or top-dose-only effect, or another doubt; inactive = no such curve, though single readings can be large or run the other way; cell line not stated here;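 further: phosphodiesterase inhibitor Ro 20-1724 added with compounds to block cAMP breakdown; potency means the concentration at half of the fitted maximal effect; nearly all actives have a fitted effect of over 60% in size; about a fifth of the inactives were tested at one dose only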
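Cells stably selected in G418 were plated at 2000/well, grown 16-24 hr, then given compounds in DMSO with the PDE inhibitor […] (300 uM solution added) for 30 min at 37C; cAMP was read by HTRF.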
* hit, by the source's call; ? = inconclusive; / = not tested or not shown; & = joins results of further samples; [ ] = dose if it differs, or a comment. An excerpt; count on the stated rates, not on these rows.

SMILES	Menin-MLL FL inh	ClpP mod	TRPML1 agonist	gsp antag	TRPML1 inh	gsp agonist
CC(=O)O[C@H]1C(=O)[C@@]2(C)C([C@H](OC(=O)c3ccccc3)[C@]3(O)C[C@H](OC(=O)[C@H](O)[C@@H](NC(=O)c4ccccc4)c4ccccc4)C(C)=C1C3(C)C)[C@]1(OC(C)=O)CO[C@@H]1C[C@@H]2OC(=O)[C@H](C)NC(=O)c1ccc(-c2c3ccc(=O)cc-3oc3cc(O)ccc23)c(C(=O)O)c1 (some centres not stated)	?	/	/	/	/	/
CC(C)CN1CCC2(CC1)CCN(S(C)(=O)=O)CC2	-7.3	/	/	/	/	/
COc1cc2c(cc1OC)[C@@H]1C(=O)c3ccc(OC)c(CC=C(C)C)c3OC1CO2 (some centres not stated)	4.6	/	/	/	/	/
O=C1CCO1	0.0&1.0	/	/	/	/	/
CNC(C)Cc1ccc(OC)cc1 (configuration not stated)	5.4	/	/	/	/	/
COc1cccc(N2C(=O)NC(=O)/C(=C/c3ccc4c5c(cccc35)CC4)C2=O)c1	16	/	/	/	/	/
CCN(CC)C(=O)/C(Cl)=C(\C)OP(=O)(OC)OC	1.9	/	/	/	/	/
CC(N)Cc1ccc(O)cc1 (configuration not stated)	0.8	/	/	/	/	/
OCC1CCCN2CCCCC12 (configuration not stated)	-0.6&1.0	/	/	/	/	/
O[C@@H](Cc1ccncc1)C(Cl)(Cl)Cl	3.6	/	/	/	/	/
CN(C)CCO	-2.5	/	/	/	/	/
COC(=O)[C@@H]1C[C@H]2CC[C@H](O)C[C@H]2N1CC1CC1	-12	/	/	/	/	/
O=C1NO[C@@H]2CN[C@@H](C(=O)O)[C@H]12	3.9	/	/	/	/	/
C[C@H]1C[C@H](C)C(=O)[C@@H]([C@H](O)CC2CC(=O)NC(=O)C2)C1	11	/	/	/	/	/
NC(N)=NN=C(/C=C/c1ccc([N+](=O)[O-])o1)/C=C/c1ccc([N+](=O)[O-])o1	?	/	/	/	/	/
CCCC[C@@H](C)[C@@H](OC(=O)C[C@@H](CC(=O)O)C(=O)O)[C@H](C[C@@H](C)CCCCCC[C@@H](O)C[C@H](O)[C@H](C)N)OC(=O)C[C@@H](CC(=O)O)C(=O)O	-2.5	/	/	/	/	/
COP(=S)(OC)Oc1ccc([N+](=O)[O-])c(C)c1	4.8	/	/	/	/	/
CN(C)[C@@H]1C(=O)C(C(N)=O)=C(O)[C@@]2(O)C(=O)C3=C(O)c4c(O)cccc4[C@@](C)(O)C3CC12 (some centres not stated)	?	/	/	/	/	/
CC(C)n1c(=O)c(C=Nc2ccc(Cl)cc2)c(O)n(Cc2ccco2)c1=O	?	/	/	/	/	/
CC(C)C(N)C(=O)OCCOCn1cnc2c(=O)[nH]c(N)nc21 (configuration not stated)	-1.0	/	/	/	/	/
CC[C@@]1(O)CC(O)c2c(cc3c(c2O)C(=O)c2c(O)ccc(O)c2C3=O)C1C(=O)OC (some centres not stated)	?	/	/	/	/	/
c1cc(CN2CC3(CCNCC3)C2)ccn1	3.2	/	/	/	/	/
Oc1ccc2c3c1O[C@H]1c4[nH]c5c(c4C[C@@]4(O)[C@@H](C2)N(CC2CC2)CC[C@]314)C[C@]1(O)[C@H]2Cc3ccc(O)c4c3[C@@]1(CCN2CC1CC1)[C@@H]5O4	-15	/	/	/	/	/
COc1ccc2cc1Oc1ccc(cc1)CC1c3cc(c(OC)cc3CCN1C)Oc1c(OC)c(OC)cc3c1C(C2)N(C)CC3 (configuration not stated)	1.4	/	/	/	/	/
Clc1ccc(C2=CCC[C@H]3CC[C@@H]2N3)cn1	31[activator]	/	/	/	/	/

Complete entries, looked up by structure:
CC(C)C(N)C(=O)OCCOCn1cnc2c(=O)[nH]c(N)nc21 (configuration not stated) across the screens: Menin-MLL FL inh = -1.0; ClpP mod = /; TRPML1 agonist = /; gsp antag = /; TRPML1 inh = /; gsp agonist = /
CN(C)CCO across the screens: Menin-MLL FL inh = -2.5; ClpP mod = /; TRPML1 agonist = /; gsp antag = /; TRPML1 inh = /; gsp agonist = /

Next structures.
SMILES	Menin-MLL FL inh	ClpP mod	TRPML1 agonist	gsp antag	TRPML1 inh	gsp agonist
c1cncc([C@@H]2CCCCN2)c1	?	/	/	/	/	/
ClCC1CO1 (configuration not stated)	-4.1	/	/	/	/	/
CCNC(=O)[C@@H]1O[C@@H](n2cnc3c(N)ncnc32)[C@H](O)[C@H]1O	?	/	/	/	/	/
C/C=C1/CN2CC[C@]34C(=C(C=O)[C@H]1C[C@@H]23)Nc1ccccc14	?	/	/	/	/	/
C=C1CC2C(CC[C@]3(C)C(=O)CCC23)[C@]2(C)C=CC(=O)C=C12 (some centres not stated)	7.1	/	/	/	/	/
CCN(CC)c1nc(C)cc(OP(=S)(OC)OC)n1	2.4	/	/	/	/	/
CC1(C)C(O)CC(O)[C@]2(C)C1CC(=O)[C@]1(C)C2CC[C@@]2(C)C(c3ccoc3)OC(=O)C3OC321 (some centres not stated)	-0.3	/	/	/	/	/
CC(C)NC[C@@H](O)COc1cccc2[nH]ccc12	0.4	/	/	/	/	/
COC1=C[C@H]2[C@H]3Cc4ccc(OC)c(O)c4[C@@]2(CCN3C)CC1=O	0.2	/	/	/	/	/
N[C@H](Cc1ccc(O)cc1)C(=O)O	?	/	/	/	/	/
COc1ccc2c(c1OC)C(=O)O[C@@H]2C1c2cc3c(cc2CCN1C)OCO3 (some centres not stated)	-17	/	/	/	/	/
CC1(C)C(=O)C=C[C@@]2(C)C1=C(O)C(=O)[C@@]1(C)C2CC[C@@]2(C)C(c3ccoc3)C[C@H]3O[C@@]321 (some centres not stated)	0.0	/	/	/	/	/
COCCN(C(=O)CCl)c1c(C)cccc1C	-4.2	/	/	/	/	/
CN1C2CC(OC(=O)C(CO)c3ccccc3)CC1C(O)C2 (configuration not stated)	-0.7	/	/	/	/	/
C/C=C(/C)C(=O)OC1CC[C@]2(C)C3CCC4[C@]5(O)CC(O)[C@]6(O)C(CN7CC(C)CCC7[C@]6(C)O)[C@]5(O)C[C@@]42O[C@]13O (some centres not stated)	-6.5	/	/	/	/	/
C=CCN1CC[C@]23c4c5ccc(O)c4O[C@@H]2C(=O)CC[C@]3(O)[C@H]1C5	-9.9	/	/	/	/	/
CNCCc1ccccc1	1.5	/	/	/	/	/
CC(C)CN1CC[C@@]2(CCCN(C(=O)Oc3ccccc3)C2)C1	1.3	/	/	/	/	/
O=C1CC(O)(CF)CCO1 (configuration not stated)	-1.4	/	/	/	/	/
COc1ccc2c(c1)[C@@]13CCCCC1[C@@H](C2)N(C)CC3 (some centres not stated)	2.8	/	/	/	/	/
O=C(Nc1cccc(F)c1)N1CCCC2(CCN(C(=O)Oc3ccccc3)CC2)C1	-1.0	/	/	/	/	/
CC(C)c1ccc2c(c1O)CCC1C3=C(CC[C@]21C)C(=O)OC3 (some centres not stated)	-1.4	/	/	/	/	/
CC1OC(=O)C(C(C)C)NC(=O)C(C(C)C)OC(=O)C(C(C)C)NC(=O)C(C)OC(=O)C(C(C)C)NC(=O)C(C(C)C)OC(=O)C(C(C)C)NC(=O)C(C)OC(=O)C(C(C)C)NC(=O)C(C(C)C)OC(=O)C(C(C)C)NC1=O (configuration not stated)	-2.7	/	/	/	/	/
COC(=O)C1(F)C(=O)NC(=O)NC1O (configuration not stated)	/	0.8%	/	/	/	/
COOCC1(C(=O)OC)C[C@H](c2ccc(OC)cc2)N(Cc2ccccc2OC)[C@@H]1c1ccccc1C (some centres not stated)	/	-0.8%	/	/	/	/

The listing continues.
SMILES	Menin-MLL FL inh	ClpP mod	TRPML1 agonist	gsp antag	TRPML1 inh	gsp agonist
Cc1ccc(C(O)(C(=O)OC(C)C)C(O)c2ccc(F)cc2)cc1 (configuration not stated)	/	1.2%	/	/	/	/
CC(=O)Nc1ccc(OC(=O)N2CCN(/[N+]([O-])=N/Oc3ccc([N+](=O)[O-])cc3[N+](=O)[O-])CC2)cc1	/	/	3.5	/	-3	/
C[C@H]1Cn2cnc(C(=O)Nc3ccc(CNC(=O)OC(C)(C)C)cc3)c2C(=O)N1	/	-1.7%	/	/	/	16%
C[C@H]1CNC(=O)c2c(C(=O)Nc3cccc(Cl)c3)ncn21	/	?	/	/	/	4%
COC(=O)C1=C(c2ccc(OCc3ccccc3)cc2)C[C@@H]2CC[C@H]1N2C(=O)NCc1ccccc1C(F)(F)F	/	-3.8%	/	/	/	0%
O=C(NCC1=C(c2cccc3ccccc23)C[C@@H]2CC[C@H]1N2Cc1ccco1)c1cccs1	/	-1.4%	/	/	/	17%
C[C@@H]1CN([C@H](C)CO)C(=O)c2c(c3ccccc3n2C)-c2ccccc2CO[C@@H]1CN(C)Cc1ccc(O)cc1	/	-5.1%	/	/	/	-33%[inhibitor]
CC(=O)C1CCC2C3CC(O)C4CC(O)CCC4(C)C3CCC12C (configuration not stated)	/	0.4%	/	-7%	/	/
CCN1C[C@@]2(COC)C3[C@@H](OC)[C@H]4[C@@H]1[C@@]3(C1C[C@H]3[C@H](OC(=O)c5ccccc5)C1[C@]4(OC(C)=O)C[C@H]3OC)[C@@H](OC)C[C@H]2O (some centres not stated)	/	0.1%	/	2%	/	/
CCN1C[C@]2(COC)CC[C@H](O)[C@@]34C5C[C@H]6[C@H](O)C5[C@](O)(C[C@H]6OC)[C@@H]([C@H](OC)C23)[C@@H]14 (some centres not stated)	/	1.8%	/	15%	/	/
c1cc2c(cc1C1OCC3C(c4ccc5c(c4)OCO5)OCC13)OCO2 (configuration not stated)	/	0.4%	/	-6%	/	/
COc1cc(O)cc2c1cc([N+](=O)[O-])c1c(C(=O)O)cc3c(c12)OCO3	/	-6.2%	/	-6%	/	/
C[C@H]1C/C=C/[C@H]2[C@H](O)[C@H](C)[C@@](C)(O)[C@H]3[C@H](Cc4ccccc4)NC(=O)[C@]32[C@H](O)/C=C/[C@](C)(O)C1	/	0.3%	/	9%	/	/
NCCc1ccccc1	/	-0.7%	/	9%	/	/
c1ccc(Nc2ccc3ccccc3c2)cc1	/	4.7%	/	-20%	/	/
COC(=O)C1=CO[C@H](C)[C@H]2CN3CC[C@@]4(C(=O)Nc5ccccc54)[C@@H]3C[C@H]12	/	-0.6%	/	1%	/	/
CCC1(CC)C(=O)NC(=O)N(c2ccccc2)C1=O	/	1.0%	/	-3%	/	/

Single entries from the results shown:
Value of CCC1(CC)C(=O)NC(=O)N(c2ccccc2)C1=O in ClpP mod: 1.0%
Value of C[C@H]1CNC(=O)c2c(C(=O)Nc3cccc(Cl)c3)ncn21 in gsp agonist: 4%
